Compound activity: PubChem BioAssay, National Center for Advancing Translational Sciences (NCATS)
Menin MLL FP FL – menin-MLL binding inhibition, fluorescein peptide; Fluorescence polarization, fluorescein-MLL peptide displacement from menin; FP activity change, % at 61.4 µM; 290,000 tested, under 10 active; AID 1766; inconclusive = falling polarisation curve, or a change in total fluorescence; inactive = total fluorescence flat and polarisation flat or rising; no compound was filed as active; the % refers to the polarisation; negative = inhibition;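 note: % of control where 0% means no effect; inhibitors lower the polarisation; unlabelled MLL peptide was the positive control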
TRPV1 PAM – human TRPV1 potentiation; potentiation, % at 8.33 µM; TRPV1-expressing cells, Fluo-8 calcium influx, capsaicin EC20 potentiation; host cell line not named in the record; control for the full effect not named in the record; AID 540277; actives 0.02% (n = 320,000); Q8NER1; active means potentiation above 80%; inconclusive means 30% to 80%; inactive means below 30%; note: 0% is about no effect
Target sequence (Q8NER1 whole entry, looked up): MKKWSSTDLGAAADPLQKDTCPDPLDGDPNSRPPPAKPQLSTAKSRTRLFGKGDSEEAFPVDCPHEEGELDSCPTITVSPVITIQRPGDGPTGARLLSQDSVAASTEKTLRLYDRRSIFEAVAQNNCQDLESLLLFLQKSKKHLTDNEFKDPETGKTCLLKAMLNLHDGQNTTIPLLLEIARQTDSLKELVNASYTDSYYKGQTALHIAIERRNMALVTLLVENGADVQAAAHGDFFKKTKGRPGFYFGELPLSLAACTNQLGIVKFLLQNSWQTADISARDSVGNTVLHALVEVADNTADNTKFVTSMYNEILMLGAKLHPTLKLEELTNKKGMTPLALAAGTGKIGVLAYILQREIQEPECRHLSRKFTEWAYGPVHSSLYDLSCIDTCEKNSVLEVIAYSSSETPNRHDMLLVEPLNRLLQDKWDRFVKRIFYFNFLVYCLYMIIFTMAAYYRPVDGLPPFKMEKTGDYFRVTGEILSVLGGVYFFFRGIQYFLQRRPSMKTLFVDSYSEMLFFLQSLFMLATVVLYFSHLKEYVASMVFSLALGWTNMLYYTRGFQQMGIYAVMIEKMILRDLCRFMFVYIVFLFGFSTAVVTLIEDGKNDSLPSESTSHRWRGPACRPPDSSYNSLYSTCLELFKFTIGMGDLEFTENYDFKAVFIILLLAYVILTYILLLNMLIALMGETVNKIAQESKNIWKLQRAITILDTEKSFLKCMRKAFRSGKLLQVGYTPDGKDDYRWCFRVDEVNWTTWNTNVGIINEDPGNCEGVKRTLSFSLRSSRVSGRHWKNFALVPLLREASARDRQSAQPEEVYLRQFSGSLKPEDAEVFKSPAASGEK
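TRPV1-expressing cells were cultured overnight at 35.5C and loaded with Fluo-8 calcium dye for 40 to 90 min at room temperature. After a 10 s baseline, compound was added and calcium influx was read kinetically for 3 min (ex 480/em 520 nm).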
gsp antagonist – antagonizes gsp, the McCune-Albright syndrome mutation; gsp-mutant cells, cAMP HTRF, 30 min; control for the full effect not named in the record; Potency, µM (titrated, usually from 76.9 µM), for inactives: top-dose activity change, negative = inhibition, hits mostly inhibitors; actives 0.4% (n = 340,000); AID 624288; active = falling curve of any shape with a large fitted effect; inconclusive = falling curve, mostly with a smaller effect; inactive = flat or rising curve; cell line not stated here;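 note: intracellular cAMP measured with PDE inhibitor Ro 20-1724 present during compound exposure; potency is the fitted concentration of half-maximal effect; % is set by controls: 0 for no effect and ±100 for the full control effect; nearly all actives have a fitted effect of over 65% in size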
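Cells, 2000/well, grown 16–24 h in DMEM 10% FBS with 0.5 mg/ml G418, then compounds plus […] (300 uM addition stock), 30 min at 37C. cAMP read by HTRF (cAMP-d2 and anti-cAMP antibody-K in lysis buffer) after 30 min RT.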
gsp agonist – activates gsp, the McCune-Albright syndrome mutation. gsp mutant cells, cAMP HTRF, 30 min; control for the full effect not named in the record. Potency, µM (top dose mostly 76.9 µM), for the others: top-dose activation (cAMP increase), most hits filed as activators. actives 0.13% (n = 340,000); active = well fitted activation curve with a large enough effect; inconclusive = small, poorly fitted or top-dose-only effect, or another doubt; inactive = no such curve, though single readings can be large or run the other way; cell line not stated here;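 note: phosphodiesterase inhibitor Ro 20-1724 added with compounds to block cAMP breakdown; potency is the fitted concentration of half-maximal effect; nearly all actives have a fitted effect of over 60% in size; about a fifth of the inactives were tested at one dose only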
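Cells stably selected in G418 were plated at 2000/well, grown 16-24 hr, then given compounds in DMSO with the PDE inhibitor […] (300 uM solution added) for 30 min at 37C; cAMP was read by HTRF.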
Sfp inh – inhibitors of Bacillus subtilis Sfp phosphopantetheinyl transferase; Q9F4F7; Biochemical Sfp PPTase activity, qHTS; Potency, µM, for the others: max response, negative = inhibition, usual class: inhibitors; actives 3.5% (n = 310,000); AID 1490; active = well fitted inhibition curve with a large enough effect; inconclusive = small, poorly fitted or top-dose-only effect, or another doubt; inactive = no such curve, though single readings can be large or run the other way;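 note: the enzyme is Sfp with the accession as filed and its product quenches rhodamine fluorescence; potency is the fitted concentration of half-maximal effect; 0% = enzyme reaction without inhibitor and -100% = no enzyme wells; top concentration of the series not given in the record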
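Compounds were incubated with enzyme (final 15 nM) for 15 min at room temperature before substrate addition started the reaction. Fluorescence at 525 nm excitation, 598 nm emission was recorded immediately and after 30 minutes.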
CtBP-E1A inh – blocks the CtBP interaction with E1A; AlphaScreen GST-E1A/His-CtBP binding, 1536-well; stronger effect = lower value; control for the full effect not named in the record; activity change, % (test concentration not listed); actives 0.49% (n = 340,000); AID 651724; in the data active means activity change below about -65%; inconclusive means about -30% to -65%; inactive means above about -30%; note: % is set by controls: 0 for no effect and ±100 for the full control effect; compound concentration not given in the record
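Steps: dispense buffer (Tris pH 8.0, NaCl 300 mM, TCEP 1 mM, BSA, Tween 20); add 5X protein mix (GST-E1A, His-CtBP, 125 nM each); pin 23 nL compound; 2 h at 37 °C, dark; add 5X beads (50 ug/mL); 1 h; read.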
ClpP mod – qHTS Assay for Activators of ClpP; purified B. subtilis ClpP, FRET peptide cleavage, 20 min; ATP-dependent Clp protease proteolytic subunit (Bacillus subtilis (strain 168)), P80244; actives 1.9% (n = 340,000); Potency, µM (top dose mostly 57.5 µM), for the others: top-dose activity change, negative = active; AID 651965, 2013; active = well fitted falling curve with a large enough effect; inconclusive = small, poorly fitted or top-dose-only effect; inactive = no such curve, though single readings can be large or run the other way; note: potency is the fitted concentration of half-maximal effect; the source files actives as falling curves though it sought activators and does not explain the sign; nearly all actives have a fitted effect of over 65% in size; many hits overshoot -100%
Target sequence (P80244 whole entry, looked up): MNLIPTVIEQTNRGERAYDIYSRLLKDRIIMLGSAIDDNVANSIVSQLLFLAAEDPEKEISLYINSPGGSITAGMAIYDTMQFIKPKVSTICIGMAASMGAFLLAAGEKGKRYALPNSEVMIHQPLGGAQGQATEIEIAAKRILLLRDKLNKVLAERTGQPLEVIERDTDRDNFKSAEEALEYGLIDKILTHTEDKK
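ClpP 10 microg/mL final, pH 8 Tris/KCl buffer with BSA, glycerol, Tween-20; compound pinned in; FRET-FV substrate; RT 20 min; Ex320/Em430; ΔFRET vs ADEP 5.8 microM, DMSO, no enzyme.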
* marks the source's active call; other numbers are inactive results; u = inconclusive; x = not tested or not shown; [ ] = another dose, or the depositor's remark.

Molecule	Menin MLL FP FL	TRPV1 PAM	gsp antagonist	gsp agonist	Sfp inh	CtBP-E1A inh	ClpP mod
CNC(=O)N(O)C1N(/N=C/c2ccccc2F)C(=S)SC1(C)C (centres undefined)	-2.6	5.2	6.5%	u	1.7%	-12.8	-0.1%
CN(CCCN1CCOCC1)Cc1nc(-c2ccccc2)no1	-2.1	-0.7	2.8%	4.8%	26.2%	-0.7	-0.1%
CSC1=C(C#N)C(C)CC(=O)N1 (centres undefined)	1.7	12.7	4.2%	u	0.4%	6.5	-1.2%
CCOc1ccc(CCNC(=O)C2CC(C)=CCC2C(=O)O)cc1OCC (centres undefined)	-2.6	-1.9	8.1%	-2.6%	7.5%	3.9	x
O=C(NNC(=O)c1cccs1)c1cccc(F)c1	-2.5	9.3	6.5%	10.0%[15.4 µM]	10.9%	7.4	x
C/C(=N/NC(=O)c1ccc2c(c1)OCO2)c1ccc(NC(=O)c2ccc(F)cc2)cc1	x	-8.2	9.5%	-6.3%	-9.3%	6.1	7.0%
CC(C)N=C1NN=C(c2ccc(F)cc2)CS1	-1.4	3.6	0.9%	-12.6%[15.4 µM]	56.2µM*	0.4	x
CCO/C(C)=N/n1c2nc3ccccc3nc2c2c(=O)n(CC(C)C)c(C)nc21	2.5	2.0	3.0%	5.7%	10.8%	-0.5	-0.7%
O=C(Nc1cccc(NC(=O)c2ccco2)n1)c1ccco1	0.5	1.6	-7.1%	-21.0%	7.5%	-1.3	1.8%
COc1ccc(OCc2nnc(NC(=O)Nc3ccccc3F)s2)cc1	-1.4	u	6.7%	8.0%	2.8%	-14.3	x
CCc1noc(C)c1C(=O)N(CCC(C)C)c1c(N)n(Cc2ccccc2)c(=O)[nH]c1=O	x	-3.1	8.9%	2.7%	x	-2.7	-0.2%
O=C(/C(=C/c1cccc(Cl)c1)c1nc2ccccc2[nH]1)c1ccccc1	0.6	-3.4	-9.7%	-64.3%[inhibitor]	2.2%	-5.0	-9.9%
COC(=O)c1cccc(NC(=O)COc2cccc([N+](=O)[O-])c2)c1	2.1	-18.4	-18.2%	-31.4%[inhibitor]	-2.0%	x	-1.9%
CN(C1=C(NC(=O)c2ccccc2)C(=O)c2ccccc2C1=O)C1CCS(=O)(=O)C1 (centres undefined)	-25.0	9.3	u	u	20µM*	-16.7	-2.8%
COc1ccc([C@H]2CC(=O)C=C(c3cccc(OCc4ccccc4)c3)C2)cc1	x	-5.3	-0.7%	x	x	4.4	0.0%
COc1ccccc1NC(=O)C/C(N)=N/OCC(=O)Nc1cccc(Cl)c1	x	x	7.7%	13.8%	x	-0.6	1.1%
Cc1ccc(NC(=O)C(NC2CCCC2)c2ccccc2)cc1Cl (centres undefined)	-1.3	-0.1	2.0%	1.3%[15.4 µM]	-3.0%	12.7	0.4%
CC(=O)Nc1ccc(NC(=O)c2cc(=O)c3cc(C)cc(C)c3o2)cc1	-0.6	11.1	14.6%	-10.8%	11.2%	-0.2	-1.5%
COC(=O)c1ccc(NC(=O)c2ccco2)cc1	10.4	2.9	-8.6%	6.4%	24.9%	-3.9	0.9%
Fc1ccc(CSc2nnc3ccccn23)c(Cl)c1	-1.3	9.6	-9.8%	-5.4%[15.4 µM]	2.5%	0.0	-0.3%
C=C1c2ccc(C)cc2NC(=O)N1c1ccccc1	4.1	22.8	0.5%	6.2%	7.5%	4.8	-21.2%
COc1cccc(NC(=O)CN(C)C(=O)C2CC(=O)N(CCc3ccc(OC)c(OC)c3)C2)c1 (centres undefined)	x	x	9.5%	-65.6%[inhibitor]	x	-9.2	2.8%
CCc1cccc(CC)c1NC(=S)Nc1cccc(Cl)c1Cl	-0.4	10.0	0.0%	-13.9%[15.4 µM]	4.1%	-4.6	x
N#C/C(=C\c1cccnc1)C(=O)Nc1ccc(C(=O)O)cc1	-3.8	-5.3	11.8%	-8.9%	24.2%	4.5	2.5%
O=C(COC(=O)COc1ccc(Cl)cc1)Nc1ccc(N2CCOCC2)cc1	2.9	-10.7	-8.5%	u	-7.8%	-19.3	x
COC(=O)c1ccccc1NC(=O)Nc1ccc(C)cn1	0.8	-4.8	9.0%	-5.7%	-10.1%	9.5	x
COc1ccc2[nH]c3c(=O)n4c(nc3c2c1)SCCC4	-7.8	-4.3	-10.5%	24.1%[15.4 µM]	6.1%	x	x
COc1ccc(C(=O)NC(=S)NNC(=O)c2ccccc2O)cc1	-6.3	11.5	-5.4%	11.8%[15.4 µM]	20.2%	-11.9	-1.0%
CCOC(=O)CSC1=C(C#N)C(c2ccccc2Cl)C(C(=O)OC)C(=O)N1 (centres undefined)	-1.0	-0.8	-9.6%	-1.3%	-10.8%	-3.3	1.0%
O=C(O)CCCC(=O)NS(=O)(=O)c1ccc(Cl)cc1	-5.6	-11.2	7.9%	7.5%	-6.9%	2.8	1.1%

Rewritten as labelled records: two of the compounds above
CCO/C(C)=N/n1c2nc3ccccc3nc2c2c(=O)n(CC(C)C)c(C)nc21
  Menin MLL FP FL = 2.5 | TRPV1 PAM = 2.0 | gsp antagonist = 3.0% | gsp agonist = 5.7% | Sfp inh = 10.8% | CtBP-E1A inh = -0.5 | ClpP mod = -0.7%

O=C(Nc1cccc(NC(=O)c2ccco2)n1)c1ccco1
  Menin MLL FP FL = 0.5 | TRPV1 PAM = 1.6 | gsp antagonist = -7.1% | gsp agonist = -21.0% | Sfp inh = 7.5% | CtBP-E1A inh = -1.3 | ClpP mod = 1.8%

Among those listed so far, these contain a furan ring, fused or not:
Molecule	Menin MLL FP FL	TRPV1 PAM	gsp antagonist	gsp agonist	Sfp inh	CtBP-E1A inh	ClpP mod
O=C(Nc1cccc(NC(=O)c2ccco2)n1)c1ccco1	0.5	1.6	-7.1%	-21.0%	7.5%	-1.3	1.8%
COC(=O)c1ccc(NC(=O)c2ccco2)cc1	10.4	2.9	-8.6%	6.4%	24.9%	-3.9	0.9%

(further entries)
Molecule	Menin MLL FP FL	TRPV1 PAM	gsp antagonist	gsp agonist	Sfp inh	CtBP-E1A inh	ClpP mod
CCCCCCCCCCCC(=O)NC(Cc1ccc(OC)c([N+](=O)[O-])c1)C(=O)O (centres undefined)	3.5	16.9	-23.5%	10.3%[15.4 µM]	14.0%	6.3	x
COc1ccc(C(CCc2cc(OC)c(OC)c(OC)c2)NC(C)=O)cc1 (centres undefined)	x	x	-2.9%	u	x	7.0	x
CCSCc1nnc(SCC(=O)Nc2ccc(F)cc2)n1CC	0.0	2.9	-8.6%	14.5%[15.4 µM]	2.1%	3.8	-11.3%
O=C(CSc1nnc(-c2ccco2)n1Cc1ccco1)NCc1cccs1	-0.6	2.5	17.9%	23.6%	10.9%	3.8	0.5%
Cc1nn(CCC#N)c2[nH]c(=O)cc(C(F)(F)F)c12	5.2	-4.8	4.4%	u	-25.6%	-6.9	x
CSc1nc2ccc(NS(=O)(=O)c3ccccc3F)cc2s1	10.8	6.5	-13.6%	15.2%[15.4 µM]	11.3%	5.0	-2.2%
Cc1ccc(N(CN2CCCC2=O)C(=O)c2ccc(C)c(C)c2)cc1	3.6	-20.3	u	-10.0%	16.8%	3.7	2.8%
CC(=O)Oc1ccc(/C=N/NS(=O)(=O)c2ccc(C)cc2)c(OC(C)=O)c1	3.6	-0.7	-6.7%	u	5.1%	0.0	2.0%
O=C(C(=O)N1CCCc2ccccc21)c1cn(CC(=O)N2CCOCC2)c2ccccc12	3.3	-15.9	-5.9%	u	11.7%	1.1	x
Cc1nn(-c2ccccc2)c(Cl)c1C(=O)N1CCN(c2ncnc3c2cnn3-c2ccccc2)CC1	1.2	4.6	12.6µM*	22.0%	8.7%	-10.2	-12.7%
O=C(NCCN1CCOCC1)C(=O)NCC1OCCCN1S(=O)(=O)c1ccc(F)cc1 (centres undefined)	x	6.9	11.2%	-33.1%[inhibitor]	15.7%	5.7	1.5%
O=C(NCc1ccccn1)c1ccc(NS(=O)(=O)c2cccc(Cl)c2)cc1	x	9.6	6.7%	2.6%	-0.8%	-6.5	-3.0%
COc1cc(C(=O)OCC(=O)Nc2cccc(S(=O)(=O)N3CCCC3)c2)ccc1OCC(C)C	x	10.1	-7.1%	24.3%[15.4 µM]	x	-0.4	x
Cc1ccccc1NC(=O)COC(=O)c1ccccc1SCC(=O)N1CCCC1	x	-1.3	0.0%	-6.9%	2.6%	3.4	0.8%
O=C(NC(=S)Nc1ccccc1Br)C1CCCCC1	x	x	-9.2%	16.3%	x	2.9	-2.9%
COc1ccc(NC(=O)CC(=O)Nc2ccc(OC)cc2)cc1	x	x	7.0%	-48.6%[inhibitor]	x	12.3	1.1%
COc1ccc(CNn2c(-c3cccc(C)c3)nc3ccccc3c2=O)cc1OC	-0.8	-9.9	-9.4%	7.6%	-18.4%	2.2	-3.3%
CCC(=O)OCC(=O)Nc1ccc2c(c1)OCO2	-4.9	8.5	x	8.4%[15.4 µM]	19.7%	0.0	x
O=[N+]([O-])c1ccc(O)c(/C=N/Nc2ccccc2[N+](=O)[O-])c1	-10.2	u	-22.4%	-2.6%	-9.7%	1.4	-0.4%
